Mtb MbtI inh: MbtI salicylate synthase inhibitors, primary screen, biochemical, fluorescence intensity; P9WFX0; purified MbtI enzyme, fluorescence intensity read-out; inhibition, %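 (about 17 µg/mL by stock and volumes)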; 100,000 tested, 0.89% active; AID 493033, 2011;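 active = above 50% in both replicates, above 80% if mildly self-fluorescent; inactive = the rest, strongly fluorescent compounds included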;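 note: 0% = mean of negative and 100% = mean of positive controls; one replicate is shown; some compounds called inactive have numbers as strong as hits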
Target sequence (P9WFX0 whole entry, looked up): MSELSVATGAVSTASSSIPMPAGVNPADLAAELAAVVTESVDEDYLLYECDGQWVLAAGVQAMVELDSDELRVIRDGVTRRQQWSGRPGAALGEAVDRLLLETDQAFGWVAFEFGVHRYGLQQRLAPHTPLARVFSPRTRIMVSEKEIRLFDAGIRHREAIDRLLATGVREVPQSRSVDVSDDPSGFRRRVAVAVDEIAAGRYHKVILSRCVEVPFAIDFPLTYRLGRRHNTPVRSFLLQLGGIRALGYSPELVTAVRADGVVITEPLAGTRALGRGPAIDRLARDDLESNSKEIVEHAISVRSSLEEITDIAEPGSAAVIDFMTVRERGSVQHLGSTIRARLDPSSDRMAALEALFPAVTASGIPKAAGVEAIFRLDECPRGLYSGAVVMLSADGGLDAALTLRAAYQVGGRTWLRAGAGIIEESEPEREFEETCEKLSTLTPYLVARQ
Mtb MenB inh: M. tuberculosis MenB inhibitors, primary screen, biochemical, absorbance; 100,000 tested, 0.43% active; inhibition, %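 (about 12 µg/mL by stock and volumes)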; 1,4-dihydroxy-2-naphthoyl-CoA synthase (Mycobacterium tuberculosis (strain ATCC 25618 / …; AID 540299, 2011; MenB enzyme assay, absorbance read-out; some hits fall short of the stated cut;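 active = mean of two replicates above 30%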;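 note: 0% = no compound and 100% = wells with inactive enzyme; the first replicate is given; strong numbers were not always called active; inactives centre near -10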
Target sequence (P9WNP5 whole entry, looked up): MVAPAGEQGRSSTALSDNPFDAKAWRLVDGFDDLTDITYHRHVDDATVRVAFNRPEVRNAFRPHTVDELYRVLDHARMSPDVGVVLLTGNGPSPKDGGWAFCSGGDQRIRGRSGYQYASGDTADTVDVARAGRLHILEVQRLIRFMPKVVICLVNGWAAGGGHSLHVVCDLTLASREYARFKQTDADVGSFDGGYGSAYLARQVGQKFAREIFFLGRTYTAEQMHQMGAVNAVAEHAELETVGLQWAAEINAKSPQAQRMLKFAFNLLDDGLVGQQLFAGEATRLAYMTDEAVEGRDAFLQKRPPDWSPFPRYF
PV pol inh: poliovirus RdRp elongation inhibitors, primary screen, biochemical, fluorescence polarization, total intensity. Genome polyprotein (Poliovirus type 1 (strain Mahoney)), P03300. poliovirus polymerase elongation; stronger effect = lower value. % elongation, % (compound at 16.7 µg/mL). 150,000 tested, 0.66% active; in the data active = % elongation below about 90%; note: some results filed as inactive read as strong as hits
PV pol inh intensity: also measured in PV pol inh; calls as there; % elongation; measured here: total intensity read-out; formula for this scale not given here;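 total fluorescence in place of polarization; lower means less elongation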
Numbers without * were called inactive; . = no result given. Rows are unselected; overall some 2% were active at least once.

SMILES	Mtb MbtI inh	Mtb MenB inh	PV pol inh	PV pol inh intensity
CN1CCC2(CC1)C(C#N)=C(N)Oc1n[nH]c(C(=O)OC(C)(C)C)c12	.	-32	102	105
CCOC(=O)c1[nH]c(C)c(C(=O)N(CC)C2CCCCC2)c1C	-2	-14	100	102
O=c1[nH]c2ccc(Cl)cc2c(-c2ccccc2)c1-[n+]1ccccc1	-214	0	104	108
O=C(CCCc1ccccc1)Nc1cccc(-c2nn[nH]n2)c1	-14	8	100	102
COc1ccc(/C=N/n2ncc3ccccc32)cc1	7	-19	104	109
CN(N=O)C(=O)N[C@@H]1[C@@H](O)[C@H](O)[C@@H](CO)O[C@@H]1O	-7	13	100	104
CCCC1=C(C(=O)OCC)C(c2ccccc2OC)NC(=O)N1 (stereo unspecified)	6	-28	103	100
COc1ccc(OC)c(/C=C/C(=O)N(Cc2cccs2)Cc2cccs2)c1	103	-2	101	98
O=C(CN1CCC(n2nnc3ccccc32)CC1)N(C1CCCCC1)C1CCCCC1	-4	-87	104	100
Cc1ccc(N2C(=O)CC(Cc3ccccc3)C2=O)cc1 (stereo unspecified)	-2	-19	103	107
COc1cc(CO)ccc1OCc1ccccc1C	3	7	101	102
CCN(c1ccc(OC)cc1)S(=O)(=O)c1ccc2c(c1)OCC(C(=O)N1CCCC1)O2 (stereo unspecified)	10	-29	100	101
CCOC(=O)c1sc(/S(C)=N/S(=O)(=O)c2cccc(Cl)c2)c2c1CCC=C2 (stereo unspecified)	-13	-17	105	115
CC1CCN(CCn2c(=S)[nH]c3ccccc3c2=O)CC1	-19	5	101	102
Cc1ccc(C(=O)Nc2nncs2)cc1	16	26*	101	102
CN1C(C(=O)N2CCN(C(=O)c3ccco3)CC2)=CC(c2ccc(F)cc2)=NS1(=O)=O	-6	-12	104	102
CC(C)(C)NC(=O)NCc1nc(-c2ccccc2)no1	-10	-10	101	104
CCOC(=O)c1c(COC(C)=O)n(C)c2cc(Br)c(OC)cc12	.	-28	103	91
COc1ccc(NC(=O)CCCn2c(=S)[nH]c3ccccc3c2=O)cc1	-1	-17	98	94
O=C1CC(c2nnc(Cc3ccc4c(c3)OCO4)o2)CN1c1ccccc1 (stereo unspecified)	-2	-37	99	104
O=C1Cc2cc(C(=O)CSc3nnc(-c4cccs4)n3CC3CCCO3)ccc2N1 (stereo unspecified)	-2	-2	107	111
CCc1ccc(S(=O)(=O)NCCN2CCN(S(=O)(=O)c3ccc(CC)cc3)CC2)cc1	10	-35	106	110
CCc1cccc(-n2c(-c3ccco3)nc3c(cnn3-c3ccccc3Cl)c2=O)c1	46	-2	102	105
COc1ccc2[nH]c(O)c(N=O)c2c1	6	-30	102	101
CCn1c(SCC(=O)Nc2ccnn2C2CCCC2)nc2cc(S(N)(=O)=O)ccc21	-5	-5	97	103

Next section.
SMILES	Mtb MbtI inh	Mtb MenB inh	PV pol inh	PV pol inh intensity
S=C1SCN(C2CCCCC2)CN1Cc1ccccc1	-1	-11	103	102
O=C1CCCC(O)=C1N=Nc1ccc(S(=O)(=O)N2CCOCC2)cc1	11	-106	101	87
CCC(C)n1nc(NC(C)=O)c2cc3cc(C)ccc3nc21 (stereo unspecified)	14	-83	99	101
CCc1ccc(-n2c(N3CCC(C)CC3)nc3ccccc3c2=O)cc1	9	0	100	107
CSc1ccc(CN(C)CC(=O)NC(=O)NC2CCCCC2)cc1	-11	-28	105	103
COc1cccc2sc(=NC(=O)c3ccccc3)n(C)c12	11	-13	101	99
O=S(=O)(NCc1ccc2c(c1)OCO2)c1cccc2nsnc12	7	-13	101	99
O=C1CSC2=NCN(c3ccc(-c4ccccc4)cc3)CN12	-40	-2	104	107
CCCCN1C(SCC(=O)NCCC)=NS(=O)(=O)c2ccccc21	-22	-5	100	100
COC(=O)c1ccc(NC(=O)Cc2ccc(F)cc2)cc1	-5	3	99	99
Cc1noc(C)c1COC(=O)/C=C/c1ccco1	24	-1	104	108
C=CCN(C(=O)c1cc2c(-c3ccc(OC)c(OC)c3)nn(C)c2s1)c1ccccc1	5	-12	102	103
S=c1[nH]nc(CSc2nc(-c3ccccc3)cn2-c2ccccc2)n1-c1ccccc1	17	-8	107	115
CCN[C@H]1C[C@H](C)S(=O)(=O)c2sc(S(N)(=O)=O)cc21	1	0	101	102
CC1(C)CC(=O)C(C2C3=C(CC(C)(C)CC3=O)OC3=C2C(=O)CC(C)(C)C3)=C(O)C1	7	-7	106	111
Cc1ccc(-c2noc(CCC(=O)N3CCCCC3c3nc4ccccc4s3)n2)cc1 (stereo unspecified)	11	-26	101	102
Cc1noc(C)c1COC(=O)c1cc(S(=O)(=O)N(C)c2ccc(F)cc2)ccc1Cl	-2	-51	106	96
CN(C(=O)c1cc2sccc2n1Cc1ccc(F)cc1)C1CCCCC1	-2	-86	107	100
CC1SC(=S)N(c2ccccc2)C1=O (stereo unspecified)	-20	-29	97	100
CCOC(=O)c1cccc(Nc2nc(C)cc(C)n2)c1	2	-6	99	96
CC1CN(C(=O)C(c2ccccc2)c2ccccc2)CC(C)O1 (stereo unspecified)	-8	-10	103	102
CCOC(=O)COc1c(Cl)cc(/C=C2/N=C(c3ccco3)OC2=O)cc1OCC	4	-17	100	101
Cc1ccc(C2C(NC(=O)c3ccc(F)cc3)C([O-])=N/[N+]2=C\c2ccc(N(C)C)cc2)cc1 (stereo unspecified)	-198	-332	99	102
Cn1c(N2C(=O)c3cccc4cccc(c34)C2=O)nc2ccccc21	2	-4	104	101
CCOC(=O)c1c(NC(C)=O)nc(SC)n1Cc1ccco1	-7	-4	106	114

The results go on:
SMILES	Mtb MbtI inh	Mtb MenB inh	PV pol inh	PV pol inh intensity
COc1ccc(CC(=O)Nc2ccc3c(c2)OCO3)cc1S(=O)(=O)N1CCOCC1	6	-17	103	103
N#CCCN1CCN(Cc2cc(-c3ccccc3)ccc2O)CC1	.	-8	104	111
CCCCC1CC1C(=O)Nc1ccccc1C#N (stereo unspecified)	10	34	104	105
c1ccc(Cn2ccc3ccccc32)cc1	-2	-25	102	108
CCOc1ccc(S(=O)(=O)n2cccn2)cc1	-7	-18	101	98
CC(C)N(C(=O)NC(=O)c1csnn1)C(C)C	-2	0	98	104
CNc1ccccc1C(C)(C)c1cc(-c2cccnc2)n[nH]1	-9	.	99	98
S=C=NC12CC3CC(CC(C3)C1)C2	1	-17	101	102
Clc1ccc(-c2cc(-n3cnc4ccccc43)n[nH]2)cc1	-3	.	102	106
COCCn1c(C)cc(/C=C(\C#N)C(=O)OCCN2C(=O)c3ccccc3C2=O)c1C	5	-31	100	107
CCc1nnsc1C(=O)Nc1cc(OC)ccc1OC	5	-38	102	106
COCC(C)n1c(C)cc(C2=NNC(=Nc3ccc(F)cc3F)SC2)c1C (stereo unspecified)	-2	-57	96	92
O=C(c1cccnc1)N1CCN(C/C=C/c2ccccc2)CC1	21	-12	.	.
CC1(C)Cc2c(sc3ncn4nc(CSc5nc6ccccc6o5)nc4c23)C(C)(C)N1	-16	-10	102	102
O=C(CCCc1c[nH]c2ccccc12)NC1=NCCS1	-4	-21	99	94
CC(OC(=O)c1c(Cl)cccc1Cl)C(=O)NC1CC1 (stereo unspecified)	-3	-19	106	104
CC(=O)NCc1ccc(C(=O)CSc2nnc(-c3ccncc3)n2Cc2ccccc2)o1	-1	-9	104	111
O=C(O)C1CCCCC1C(=O)Nc1ccc2[nH]c(=S)sc2c1 (stereo unspecified)	.	-2	103	95
COc1ccc(-c2nc(N)n(C(C)=O)n2)cc1	24	-56	102	100
CCOC(=O)Cn1c(=O)oc2cc(S(=O)(=O)N(CC(C)C)CC(C)C)ccc21	-8	-2	100	101
CN(C(=O)CSc1nc2ccccc2[nH]1)c1ccccc1	-1	-1	103	106
Cc1ccc(C)c(NC(=O)Cc2nc(CN3CCOCC3)cs2)c1	-3	-18	105	101
Cc1ccccc1-c1nnc(SCC(=O)c2ccccc2)o1	-15	-1	100	101
CCOC(=O)C(CC)n1nc(C)n2c(cc3sccc32)c1=O (stereo unspecified)	2	-11	107	101
COC(=O)c1cc2ccccc2[nH]1	.	7	105	102

14 entries from above, sorted by heavy-atom count, ascending.
SMILES	Mtb MbtI inh	Mtb MenB inh	PV pol inh	PV pol inh intensity
S=C=NC12CC3CC(CC(C3)C1)C2	1	-17	101	102
CC(C)N(C(=O)NC(=O)c1csnn1)C(C)C	-2	0	98	104
CCCCC1CC1C(=O)Nc1ccccc1C#N (stereo unspecified)	10	34	104	105
CC(OC(=O)c1c(Cl)cccc1Cl)C(=O)NC1CC1 (stereo unspecified)	-3	-19	106	104
CCc1nnsc1C(=O)Nc1cc(OC)ccc1OC	5	-38	102	106
CN(C(=O)CSc1nc2ccccc2[nH]1)c1ccccc1	-1	-1	103	106
CCOC(=O)C(CC)n1nc(C)n2c(cc3sccc32)c1=O (stereo unspecified)	2	-11	107	101
O=C(c1cccnc1)N1CCN(C/C=C/c2ccccc2)CC1	21	-12	.	.
N#CCCN1CCN(Cc2cc(-c3ccccc3)ccc2O)CC1	.	-8	104	111
COCC(C)n1c(C)cc(C2=NNC(=Nc3ccc(F)cc3F)SC2)c1C (stereo unspecified)	-2	-57	96	92
CCOC(=O)Cn1c(=O)oc2cc(S(=O)(=O)N(CC(C)C)CC(C)C)ccc21	-8	-2	100	101
COc1ccc(CC(=O)Nc2ccc3c(c2)OCO3)cc1S(=O)(=O)N1CCOCC1	6	-17	103	103
COCCn1c(C)cc(/C=C(\C#N)C(=O)OCCN2C(=O)c3ccccc3C2=O)c1C	5	-31	100	107
CC(=O)NCc1ccc(C(=O)CSc2nnc(-c3ccncc3)n2Cc2ccccc2)o1	-1	-9	104	111

The listing continues.
SMILES	Mtb MbtI inh	Mtb MenB inh	PV pol inh	PV pol inh intensity
O=P(O)(Cc1ccccc1)c1ccccc1	-17	-45	100	103
Cc1onc(-c2ccccc2)c1N1C(=O)CCN(Cc2ccccc2)C1=O	5	11	101	102
COc1cc(C2=Nc3c(c(C)nn3-c3ccccc3)P(=O)(N3CCOCC3)O2)cc(OC)c1OC (stereo unspecified)	-10	-34	103	93
CC(C)(C)OC(=O)CSc1nc2ccccc2n1CCC#N	3	-13	108	108
Cc1ccc(C(=O)N2CCN(S(=O)(=O)c3ccc(F)cc3)CC2)s1	6	7	104	99
Cn1c2ccccc2c2nnc(SCc3ccc(F)cc3Cl)nc21	.	7	106	110
CCN(CC)C(=O)c1cc(-c2ccco2)nc2ccccc12	91	.	100	104
NCCCC(N)CC(=O)NC1CNC(=O)C(C2CC(O)N=C(N)N2)NC(=O)/C(=C/NC(N)=O)NC(=O)C(CO)NC(=O)C(CO)NC1=O (stereo unspecified)	4	-2	100	102
Cc1cc(NC(=O)CSc2ncnc3sc(C)c(C)c23)n(-c2ccccc2)n1	-11	6	102	108
CCCn1c(-c2ccc(N)cc2)nc2ccccc21	88	.	102	105
Cc1cnc(N)c2c(=O)oc3ccccc3c12	114	9	101	103
O=C(Cc1ccc2c(c1)OCCO2)Nc1ccccc1C(=O)Nc1ccc2c(c1)OCO2	9	8	.	.
COc1ccc(CNC(=O)CN(C(=O)c2ccc(N3CCCC3)nc2)c2ccccc2C)cc1	22	-23	104	102
CC(OC(=O)C1=NNC(=O)CC1)C(=O)Nc1cccc(Cl)c1 (stereo unspecified)	-3	-12	101	105
CCN1C(=O)/C(=C2/C=Cc3ccccc3N2CC)SC1=Nc1ccc(N2CCOCC2)cc1	2	-7	98	101
CCc1nn2c(=O)cc(COc3cccc(NC(=O)C45CC6CC(CC(C6)C4)C5)c3)nc2s1	-1	4	101	105
COc1cccc(C=C2C(=O)c3ccccc3C2=O)c1OC(C)C	18	5	99	103
COc1ccc(OC)c(S(=O)(=O)N2CCN(c3ncccn3)CC2)c1	-15	2	100	100
Cc1cc(C)c2c(n1)sc1c(=O)oc(C)nc12	-6	-11	102	105
O=C(Nc1cccc(Cl)c1)Nc1nc(-c2ccc(OC(F)(F)F)cc2)no1	-6	-2	100	103
CC1CN(CCCOc2ccc(C(C)(C)C)cc2)CC(C)O1 (stereo unspecified)	-1	-1	99	106
O=C(O)c1ccccc1C(=O)Nc1cccc(O)c1	0	-6	100	99
c1ccc2c(c1)CCN2c1ncnc2c1nc1n2CCCCC1	-32	-17	102	102
CCn1c(=O)c(=O)[nH]c2cc(C(=O)NCCCn3ccnc3)ccc21	8	-5	100	98
COc1ccc(N(C(=O)c2ccco2)C(C(=O)NC2CCCC2)c2cc(OC)c(OC)c(OC)c2)cc1 (stereo unspecified)	-11	-18	104	101

Continuation:
SMILES	Mtb MbtI inh	Mtb MenB inh	PV pol inh	PV pol inh intensity
CC(c1ccccc1)n1cnc2c1C(=O)c1ccccc1C2=O (stereo unspecified)	0	0	100	101
CCc1ccc(NC(=O)C(C)OC(=O)c2ccc(C#N)cc2)cc1 (stereo unspecified)	-20	.	103	107
O=C(c1ccc(F)cc1)c1oc2ccccc2c1NC(=O)C1COc2ccccc2O1 (stereo unspecified)	4	12	100	102
Nn1c(SCC(=O)Nc2cccc(Br)c2)nnc1C1CC1	-10	-2	109	109
COC(=O)c1ccc(CC(=O)c2c(C)cc(O)cc2O)o1	10	-21	105	102
CC(C)(C)C(=O)Nc1ccc2c(c1)OCO2	-4	.	102	96
C[N+]1(C)C2CC(OC(=O)[C@@H](CO)c3ccccc3)CC1C1OC12 (stereo partly specified)	-6	-6	102	103
O=C(CCCCn1c(=O)c2ccccc2n(Cc2cccnc2)c1=O)NCc1ccc2c(c1)OCO2	-3	-2	101	104

Source: PubChem
